# Screens (PubChem BioAssay)
# ugtP null kill: compounds lethal to S. aureus RN4220 ugtP deletion mutant; OD600 growth, 16 h; some inactives read as strong as hits; growth inhibition, % (concentration not given with the values); 330,000 compounds, 0.54% hits;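 active = z-score under -3 and OD600 up to 0.15 on both plates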;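 also: plate controls were untreated wells for no effect and antibiotic for full effect; wells of about 80 µL received 100 nL stock; the first replicate is given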
# PrP 5UTR inh: suppresses PrP 5' UTR mRNA reporter expression. cell-based PrP 5' UTR mRNA reporter, plate reader. inhibition, % (test concentration not listed). 340,000 compounds, 0.35% hits. AID 488862;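 active = every replicate at 50% or more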;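 also: 0 = median of the neutral control wells; tested in H4 reporter cells; numbers are from one replicate; inactives centre near -14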
# Sa RN4220 lethal: kills Staphylococcus aureus RN4220; S. aureus RN4220 growth, OD600, 16 h; inhibition, % (concentration not given with the values); AID 1259311; 330,000 compounds, 0.33% hits;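 active = z-score of -3 or lower and OD600 up to 0.18 on both plates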;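 also: plate controls were untreated cells for no effect and reference antibiotic for full effect; stock transfer was 100 nL into about 80 µL; one replicate is shown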
# BJeLR viability: BJeLR cell viability loss; BJeLR (HRASV12) viability, CellTiter-Glo ATP luminescence, 48 h; reference of the scale not given here; inhibition, % (test concentration not listed); 300,000 compounds, 0.17% hits;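 active = replicate mean above 50%; inconclusive = above 50% but judged a plate artefact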;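 also: 50 nL library stock added to about 25 µL; numbers are from one replicate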
# Mtb hypoxia inh: reduces hypoxia-regulated biosensor signal in M. tuberculosis | M. tuberculosis hypoxia-regulated fluorescent reporter, fluorescence | fluorescence inhibition, % (no concentration beside the values) | 300,000 compounds, 0.1% hits | AID 1159583;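 active = 35 to 45% if threefold the growth effect, above 45% if 1.5-fold the growth effect; inactive = the rest, general growth blockers included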;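 also: wells of about 50 µL received 100 nL stock; 0% = vehicle wells and 100% = reference inhibitor wells; whole bacteria with a GFP reporter of the hypoxia response; strong numbers were not always called active; many hits fall short of the cut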
# Bead autofluor: counter-screen for toxin protease inhibitors: compound fluorescence; compound autofluorescence counterscreen, microsphere flow cytometry; hits give high values; 360,000 compounds, 3.1% hits; AID 624483; fluorescence intensity (no concentration beside the values);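 active = at least 3 SD above the mean of all compounds, about 16000 in these data; inconclusive = too few beads counted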;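 also: 100 nL of 1 mM stock went into each well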
# Mtb hypoxia inh growth: further read-out of Mtb hypoxia inh, marked with its call; growth inhibition, %; measured here: M. tuberculosis growth (absorbance);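 0% = vehicle and 100% = reference antibiotic; read after six days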
# An asterisk follows results filed as active; ? = inconclusive; nt = no result given.
mol	ugtP null kill	PrP 5UTR inh	Sa RN4220 lethal	BJeLR viability	Mtb hypoxia inh	Mtb hypoxia inh growth	Bead autofluor
O=C(NCc1ccc2c(c1)OCO2)c1cccc(N2CCCC2=O)c1	-1	-11	2.7	-7	nt	nt	4457
COC(=O)CCC(=O)N(CCN(Cc1ccccc1)C(=O)CCC(=O)OC)Cc1ccccc1	0	1	-1.3	-3	0	16	5974
COc1ccc(-c2noc(C3CCCN(C(=O)c4ccccc4OC)C3)n2)cc1OC (stereo not given)	-2	-5	2.2	-16	-1	3	16635*
O=C(Nc1ccc(S(=O)(=O)N2CCCC2)cc1)c1c(F)cccc1F	7	-7	0.1	-3	1	4	5751
COc1ccc(C2CC3(CC(C)(C)NC(SC)=N3)Oc3cc(O)cc(C)c32)cc1 (stereo not given)	4	40	-0.6	-12	-3	6	2605
C=CCn1c(SCc2ccc(C(=O)NCCO)cc2)nc2sc(C)c(C)c2c1=O	-1	-23	11	-1	14	11	4394
CCN(CCNC(=O)Cn1cc2c(n1)CCCC2)c1ccccc1	7	11	3.3	-3	nt	nt	6167
Cc1cc(C)c(C#N)c(N2CCN(S(=O)(=O)Cc3ccccc3)CC2)n1	13	6	6.3	-7	11	7	4298
COc1ccc(OC)c(-c2nnc3n2N=C(c2ccc(OC)c(OC4CCCC4)c2)CS3)c1	2	65*	6.4	nt	7	4	2893
COc1cccc(CC(=O)NCC2(N3CCCCC3)CCCCC2)c1	3	-22	-1.2	0	10	1	8285
CCN1C(=O)CC(N2CCC(Cc3ccccc3)CC2)C1=O (stereo not given)	3	-19	4.6	0	9	6	7228
CCOC(=O)C1=NNC(C(=O)c2ccc(C)cc2)C1c1ccc(OC)cc1 (stereo not given)	8	10	10.0	-1	4	9	4059
O=C(Nc1ccc(Cl)cc1)N(Cc1nnc2n1CCCCC2)c1ccccc1	-1	-9	-3.0	-1	2	-5	9110
Cc1cc(C(=O)COC(=O)c2ccccc2O)c(C)n1CC1CCCO1 (stereo not given)	3	89*	3.2	nt	3	-5	3893
CCC(C)N1Cc2ccccc2C1=N (stereo not given)	14	-11	2.6	-7	10	3	5091
COc1cccc(Cn2cnc3c(sc4nc(C)cc(C)c43)c2=O)c1	7	-20	1.6	-17	-4	7	3709
COc1cc(OC)cc(C(=O)N2CCN(C(=O)c3cccs3)CC2)c1	3	-18	0.0	-3	14	-2	4577
CC(C)Oc1ccc(C(=O)Nc2ccc(C(F)(F)F)n(C)c2=O)cc1	14	-20	-0.1	0	2	7	2074
COC(=O)c1cc(NC(=O)Cn2nc(C)n3cccc3c2=O)cc(C(=O)OC)c1	-3	3	3.1	2	-2	2	7010
CCOc1ccc(CN2CCNC(=O)C2CC(=O)NCCc2nc(C)c3c(n2)CCC3)cc1 (stereo not given)	7	-4	6.0	-9	6	5	5913
CCOC(=O)C1(CCOc2ccccc2)CCN(CC(O)CO)CC1 (stereo not given)	6	-7	0.5	-3	2	13	3274
CC(=O)OC(COC1C[C@@H]2CC[C@@]1(C)C2(C)C)C[N+]1(C)CCCCC1 (stereo not given in full)	5	-5	2.8	6	13	8	6114
CNC[C@H](CC1CCCCC1)NC[C@H](CO)NCCc1cccc(C(F)(F)F)c1	nt	2	nt	6	nt	nt	3148
Cc1ccc2cc(C(c3nnnn3CC3CCCO3)N3CCc4ccccc4C3)c(=O)[nH]c2c1 (stereo not given)	-5	-33	4.8	-6	12	10	22554*
Cn1ccc(O)c(C#N)c1=O	-6	-21	2.2	15	nt	nt	4960
O=C(COc1cccc2ccccc12)NN=Cc1ccncc1	7	nt	3.4	nt	2	-2	nt
CN(C)c1nc2c(c(=O)[nH]c(=O)n2C)n1Cc1ccc(F)cc1	8	-20	3.3	2	11	6	5097
COC(=O)c1c(NC(=O)Cc2ccccc2)sc2c1CCN(C(C)C)C2	-8	-2	-4.2	-15	-3	5	4035
CN1CCN(c2c(N)c(=O)oc3ccccc23)CC1	-2	-32	-2.6	-2	1	4	7728
NC(=O)C1CC(=O)N(c2ccc(OCc3c(F)cccc3Cl)cc2)C1 (stereo not given)	-1	48	3.0	-8	3	5	2160
O=C(C=NO)Nc1ccccc1	-5	nt	-16	nt	nt	nt	nt
COc1cccc(/C=C2\SC(=S)N(CCC(=O)NC3C=CS(=O)(=O)C3)C2=O)c1 (stereo not given)	-1	-14	4.3	12	-5	7	4408
CC(C)C(C(=O)Nc1ccc(N2CCOCC2)cc1)N1C(=O)c2ccccc2C1=O (stereo not given)	-4	-24	3.2	5	11	3	9985
CC(=O)NCCC(=O)Nc1cc(S(=O)(=O)N2CCOCC2)ccc1Oc1ccccc1	5	-5	4.4	2	-6	8	5872
c1ccc(-c2cn(CC3CCC(C4CCC(Cn5cc(-c6ccccn6)nn5)O4)O3)nn2)nc1 (stereo not given)	-2	nt	2.9	nt	-2	-2	nt
COc1ccc(OC)c(NC(=O)CSc2nnnn2-c2ccc3c(c2)OCO3)c1	3	4	2.9	1	9	9	8187
CN(CCC1CCOCC1)Cc1nc(Cc2ccccc2F)no1	10	-2	4.6	-4	12	8	4558
C/C(CC(=O)Nc1ccc(Cl)c(C(F)(F)F)c1)=N\NC(=O)c1cnccn1	nt	-21	nt	-3	nt	nt	5524
Cc1ccc(S(=O)(=O)Nc2ccc(O)c3ccccc23)c(C)c1	-4	-24	12	9	15	4	3920
CC(C)(C)n1nnnc1C(c1ccncc1)N1CCN(c2ccc(O)cc2)CC1 (stereo not given)	-2	-10	-2.1	8	-8	2	9747

# Shown field by field: part of the list above
Cc1cc(C(=O)COC(=O)c2ccccc2O)c(C)n1CC1CCCO1 (stereo not given)
  ugtP null kill: 3; PrP 5UTR inh: 89*; Sa RN4220 lethal: 3.2; BJeLR viability: nt; Mtb hypoxia inh: 3; Mtb hypoxia inh growth: -5; Bead autofluor: 3893
CCC(C)N1Cc2ccccc2C1=N (stereo not given)
  ugtP null kill: 14; PrP 5UTR inh: -11; Sa RN4220 lethal: 2.6; BJeLR viability: -7; Mtb hypoxia inh: 10; Mtb hypoxia inh growth: 3; Bead autofluor: 5091
COc1cccc(Cn2cnc3c(sc4nc(C)cc(C)c43)c2=O)c1
  ugtP null kill: 7; PrP 5UTR inh: -20; Sa RN4220 lethal: 1.6; BJeLR viability: -17; Mtb hypoxia inh: -4; Mtb hypoxia inh growth: 7; Bead autofluor: 3709

# (listing goes on)
mol	ugtP null kill	PrP 5UTR inh	Sa RN4220 lethal	BJeLR viability	Mtb hypoxia inh	Mtb hypoxia inh growth	Bead autofluor
COc1cc(OC)cc(C(=O)N[C@H](C(=O)NCCc2c[nH]c3ccccc23)C(C)C)c1	17	-11	10	5	2	20	4532
Cc1ccccc1OCC(=O)Nc1ccccc1N1CCOCC1	-9	-6	-8.5	-4	20	11	3323
CC(=O)c1cc(F)ccc1OCC(=O)Nc1ccc2c(c1)OCO2	-2	-83	4.8	nt	-17	3	3618
CC1CC(C)CN(C(=O)CCNC(=O)Cn2ccc3ccccc3c2=O)C1 (stereo not given)	3	-37	1.8	13	3	-7	4368
Cc1ccccc1OCC(=O)N/N=C/C=C/c1ccccc1	nt	-39	nt	21	nt	nt	3218
CCCC12CN(C(=O)c3ccc([N+](=O)[O-])cc3)CC(C)(CN(C(=O)c3ccc([N+](=O)[O-])cc3)C1)C2=O	-2	nt	1.7	-4	-1	8	6591
Cc1cc(C)nc(SCc2cc(=O)c(OC(=O)c3cc([N+](=O)[O-])ccc3Cl)co2)n1	2	-2	4.5	-18	-6	-2	2673
CN(C)/C=N/c1sc2c(c1C#N)CC(C)(C)NC2(C)C	nt	7	nt	12	nt	nt	6670
COc1ccc(/C=C/C(=O)c2ccc(NS(=O)(=O)c3ccc(C)cc3)cc2)cc1O	4	-16	30	5	10	4	2432
O=C(COC(=O)C1CCCC1)Nc1ncc(Cl)cc1Cl	-2	-15	3.7	5	8	3	6154
O=S(=O)(c1ccc(OCc2ccc(Br)cc2)cc1)N1CCOCC1	4	-4	-0.3	nt	5	-4	8211
COc1cc2c(cc1OC)CN(C(=O)CN1C(=O)NC3(CCC(C)CC3)C1=O)CC2 (stereo not given)	3	-1	4.4	nt	-9	-3	3326
Cc1ccccc1CC(=O)Nc1ccc(S(=O)(=O)N2CCOCC2)cc1	8	-32	-1.0	-1	-1	8	4947
CC(CNC(=O)CN1C(=O)C(=O)N(C2CCCC2)C1=O)c1ccccc1 (stereo not given)	4	-22	-1.5	nt	2	2	6572
COc1cccc(NC(=O)c2ccc(C(=O)c3ccccc3)o2)c1	6	-47	-6.9	2	1	2	4424
COc1cc(OC)cc(C(=O)NCC(=O)OCC(=O)Nc2cc(S(C)(=O)=O)ccc2Cl)c1	9	-35	1.9	-3	1	4	4178
CCCCCCCCCC(=O)N1CCN(c2cc3c(cc2F)c(=O)c(C(=O)O)cn3CC)CC1	11	1	-0.9	0	-8	-8	3350
CCCCNC(=S)N(C)N=Cc1c(C)[nH]c2ccccc12	-10	nt	-3.5	nt	11	-4	nt
CCN(CC)c1ccc(N2C(=O)CSC2=S)cc1	33*	-19	93	6	16	9	4196
CCOC(=O)c1c(C)[nH]c(C)c1C(=O)CSc1nnc(-c2cc(OC)c(OC)c(OC)c2)o1	-8	-19	-2.6	3	2	1	3746
O=C(Nc1cccc(NC(=O)c2cccs2)c1)c1ccc(Br)o1	12	-21	5.7	6	8	2	3190
O=C(CN1C(=O)/C(=C/c2ccccc2)SC1=S)NNC(=O)c1ccccc1O	1	-16	2.5	-1	3	2	4593
CC(=O)c1cccc(NC(=O)CCNC(=O)c2cccc(C)c2)c1	5	-14	2.0	-4	2	-8	5852
COc1ccc(Nc2ncnc3sc(-c4ccccc4)cc23)cc1	-16	-48	-4.9	-5	3	5	19970*
Cn1c(CNC(=O)CNC(=O)c2ccc(F)cc2)cc(=O)n(C)c1=O	4	-6	2.1	-3	4	2	5439
Cc1cc(C)n(C(=O)Cn2nc([N+](=O)[O-])c(Br)c2C)n1	7	-36	6.3	1	-7	-7	4698
CN(c1ccccc1)c1nc(N)c([N+](=O)[O-])c(N2CCCC2)n1	-3	-30	-1.8	8	3	-3	3829
Cc1cc(S(=O)(=O)Nc2ccc(C(=O)N3CCN(c4ccccc4O)CC3)cc2)ccc1F	-2	-10	4.6	-11	-3	-4	6065
CN1CCN(NC(=O)C2CC2)CC1	6	4	-1.5	-2	5	3	9831
O=C1CCCN1CCC1CCN(C2CC(=O)N(c3ccc(Cl)cc3)C2=O)CC1 (stereo not given)	6	-5	11	-1	2	2	9572
COC(=O)C1=C(c2cccc(OCc3ccccc3)c2)C[C@@H]2CC[C@H]1N2C(=O)NCc1ccc(OC)c(OC)c1	-4	-5	13	nt	-2	6	3846
CC1CC(=NNC(=O)CCc2ccc(S(=O)(=O)N3CCOCC3)cc2)CC(C)(C)C1 (stereo not given)	5	nt	3.7	nt	3	5	nt
CCC(C)NC(=O)/C(=C/c1ccco1)c1ccccc1 (stereo not given)	nt	-7	nt	-1	nt	nt	3265
O=C(OCC(=O)N1CCCC1=O)c1nc(Cl)ccc1Cl	3	-6	1.4	-12	6	-4	5828
CCOc1ccc(CN2CCN(CC3CC3)CC2CCO)cc1 (stereo not given)	9	-14	7.7	4	5	9	3579
O=C(c1ccc(Cl)c(S(=O)(=O)N2CCCC2)c1)N1CCCC(C(F)(F)F)C1 (stereo not given)	5	-15	5.1	-9	-8	0	?
O=c1oc2ccccc2n1Cc1cccc(Cl)c1	5	-21	5.2	-3	-10	-1	4272
Cc1c(C=O)c(Cl)n(C)c(=O)c1C#N	8	-32	11	4	-1	11	4017
O=C(NCc1ccncc1)c1cc(F)c(F)cc1Cl	5	-8	9.2	-5	10	-2	3455
CC(C)(C)C(=O)N1CCC(O)(CS(=O)(=O)Cc2ccccc2Cl)CC1	12	-4	5.5	-2	5	-3	14868
COc1ccc(-n2nc3c(c2NC(=O)C(C)C)CSC3)cc1	6	1	3.7	-4	-1	-5	4509
O=C(Nc1cccc(N2C(=O)C3CCCCC3C2=O)c1)c1ccccc1 (stereo not given)	9	-10	3.9	8	0	0	6483
NC(=O)CSc1cn(Cc2cccc(F)c2)c2ccccc12	-1	-24	-1.3	21	6	6	3235
